CBX7 inh – CBX7 chromodomain binding inhibitors, primary screen, biochemical, AlphaScreen; AID 1224903, 2016; normalised signal (fraction of DMSO) (no concentration beside the values); AlphaScreen His6-CBX7 / biotin-H3K27me3 peptide binding; stronger effect = lower value; actives 1.1% (n = 66,000); Chromobox protein homolog 7 (Homo sapiens), O95931; in the data active means normalised signal below about 0.5;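 further: 100 nL library stock added to about 20 µL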
Target sequence (O95931 whole entry, looked up): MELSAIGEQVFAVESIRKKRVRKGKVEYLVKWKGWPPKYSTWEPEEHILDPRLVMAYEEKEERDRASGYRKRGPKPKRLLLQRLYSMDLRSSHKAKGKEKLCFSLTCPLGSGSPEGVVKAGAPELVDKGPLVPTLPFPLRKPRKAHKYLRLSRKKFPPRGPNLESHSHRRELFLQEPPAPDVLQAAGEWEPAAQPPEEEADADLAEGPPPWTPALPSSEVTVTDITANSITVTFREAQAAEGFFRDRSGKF
CBX7 inh z-score – second read-out of CBX7 inh, no call of its own (marks repeat the call); z-score; measured here: z-score of CBX7 signal; some inactives read as strong as hits; reference of the scale not given here;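 same signal on another scale; lower means less binding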
An asterisk follows results filed as active; & = joins results of further samples.

SMILES	CBX7 inh	CBX7 inh z-score
COc1ccc(NC(=O)c2cc(-c3ccc(C)cc3)nc3ccccc23)c(OC)c1	1.1	0.46
CCCn1cnc2cc(NCc3cccc(OC)c3OC)ccc21	0.67	-9.4
COCCNC(=O)CSc1nc(-c2cccc(Cl)c2)[nH]c1-c1ccccc1	1.1	2
O=C(Nc1ccc2oc(-c3ccncc3)nc2c1)c1ccccc1Cl	1	0.62
CC(C)(C)OC(=O)N1CCC(c2cc(=O)n3[nH]cc(C(=O)Nc4ccc(Cl)cc4)c3n2)CC1	0.96	-0.89
Cc1cc(NC(=O)c2ccc3c(c2)C(=O)N(C2CCCCC2)C3=O)no1	1.1	2.4
O=C(Nc1cc(C(F)(F)F)cc(C(F)(F)F)c1)c1cnc2sccn2c1=O	1	0.44
CCC1CCCCN1CCCNC(=O)C1CC(=O)N(CCc2ccccc2)C1 (configuration not stated)	1	1.2
Cc1onc(-c2ccccc2Cl)c1C(=O)Nc1ccccc1Oc1ccccc1	1	1.1
O=C(Nc1c2c(nn1-c1ccc(F)cc1)CS(=O)(=O)C2)c1cccc(C(F)(F)F)c1	0.93	-0.76
CCOC(=O)c1c(CN2CCN(CCO)CC2)n(-c2ccccc2)c2cc(Br)c(O)cc12	1	0.59
Cc1cccc(C(=O)Nc2nc(-c3ccc(C(C)C)cc3)cs2)c1	1.1	1.7
COc1ccc(N(CC(=O)Nc2cc(C)ccc2OC)S(=O)(=O)c2c(C)nn(C)c2C)cc1	0.81	-1.4
O=C(NC1CCCCC1)C1c2ccccc2C(=O)N1Cc1ccccc1Cl (configuration not stated)	1	0.08
c1cnc2nc(-c3ccsc3)c(NC3CCCC3)n2c1	0.95	-1.2
COc1ccc(OC)c(-c2cc(C(=O)Nc3c(C)nn(Cc4ccccc4C)c3C)no2)c1	0.87	-0.92
COc1ccc2nc(N3CCC(C(=O)NC4CCCC(C)C4C)CC3)sc2c1 (configuration not stated)	1	0.13
Cc1cc(C)c2nc(N3CCC(C(=O)N4CCC5(CC4)OCCO5)CC3)sc2c1	1.1	1.8
CC(=O)n1nc(C)c2c(-c3ccccc3)c3cc(Br)ccc3nc21	1	-0.065
Cc1ccc(NC(=O)C(=O)NCCc2c[nH]c3ccccc23)cc1	0.86	-1.6

6 entries from above, set out differently:
Each structure is followed by: CBX7 inh | CBX7 inh z-score
> O=C(NC1CCCCC1)C1c2ccccc2C(=O)N1Cc1ccccc1Cl (configuration not stated)
  1 | 0.08
> c1cnc2nc(-c3ccsc3)c(NC3CCCC3)n2c1
  0.95 | -1.2
> COc1ccc(OC)c(-c2cc(C(=O)Nc3c(C)nn(Cc4ccccc4C)c3C)no2)c1
  0.87 | -0.92
> COc1ccc2nc(N3CCC(C(=O)NC4CCCC(C)C4C)CC3)sc2c1 (configuration not stated)
  1 | 0.13
> Cc1cc(C)c2nc(N3CCC(C(=O)N4CCC5(CC4)OCCO5)CC3)sc2c1
  1.1 | 1.8
> CC(=O)n1nc(C)c2c(-c3ccccc3)c3cc(Br)ccc3nc21
  1 | -0.065

(cont.)
SMILES	CBX7 inh	CBX7 inh z-score
COc1ccc(N(C)C(=O)CCc2nc(-c3ccccc3F)no2)cc1	1	0.83
Cc1cc(N2CCC(C(=O)NC3CCCCCC3)CC2)n2nc(C)c(-c3ccc(Cl)cc3)c2n1	1	0.048
COC(=O)c1ccc(Nc2cc(C)nc3nc(C)nn23)cc1	0.97	-1
NC(=O)c1ccccc1NC(=O)Cn1nc(Cc2cccnc2)c2ccccc2c1=O	0.96	-0.056
Cc1ccc2c(c1)-c1c(cnn1CC(=O)Nc1nccs1)CO2	0.92	-1.5
Cc1ccc(S(=O)(=O)NC(CCC(=O)O)C(=O)O)cc1 (configuration not stated)	1	-0.037
COc1ccc(C(=O)Nc2ccc3nc(N4CCCCC4)cc(C)c3c2)cc1OC	1	0.047
CCOC(=O)C1CCN(C(=O)CCc2c(C)nc3c(c(C)nn3-c3ccc(C)cc3)c2C)CC1	0.9	-0.8
CCCNC(=O)C1(S(=O)(=O)c2ccc(Cl)cc2)CC1	1.2	2.7
CCN(CCCNC(=O)CC1Oc2ccccc2NC1=O)Cc1ccccc1 (configuration not stated)	1	0.23
O=C1Nc2cc(C(=O)N(Cc3ccc(F)cc3)C3CCCCC3)ccc2Sc2ccccc21	0.97	-0.82
Cc1onc(-c2ccccc2)c1C(=O)Nc1ccccc1Oc1ccccc1	0.98	-0.58
COc1ccc(C2=NN(CCC(=O)NC(C)c3ccccc3)C(=O)CC2)cc1 (configuration not stated)	1	0.1
COCc1nnc(NC(=O)c2ccc(S(=O)(=O)N(C)C)cc2)o1	0.56	-10
COc1cccc(NC(=O)c2cc3c(s2)-c2ccccc2OC3)c1	1.1	3.5
Cc1c(C(=O)Nc2ccc(Br)cc2F)oc2ccc(S(=O)(=O)N3CCOCC3)cc12	1	1.2
Cn1c(=O)c(=O)n(C)c2cc(S(=O)(=O)Nc3ccc(Br)cc3)ccc21	1	0.14
COc1ccc(OC)c(NC(=O)c2cccc3c2C(=O)N(C2CCCCC2)C3)c1	0.95	-0.93
CC(C)c1ccc(Nc2cc(C(=O)NCc3ccc(F)cc3)c3ccccc3n2)cc1	1.1	3.4
O=C(Nc1nnc(-c2ccc(Br)cc2)s1)c1ccc(Cl)cc1	1	1.5

Later entries
SMILES	CBX7 inh	CBX7 inh z-score
O=C1c2ccccc2C(=O)N1c1cccc(-c2csc(Nc3cccc4ccccc34)n2)c1	0.94	-0.46
Cc1cccc(CN2C(=O)c3ccccc3Sc3ccc(C(=O)NCCN4CCOCC4)cc32)c1	0.93	-2
COC(=O)CC1C(=O)NCCN1C(=O)NC1CCCCC1 (configuration not stated)	0.93	-0.92
COC(CNC(=O)c1nc(-c2ccc(Cl)cc2)oc1C)OC	0.98	-0.38
Cc1ccc(-c2noc(-c3cc(C)cc(C)c3)n2)cc1	1.3	5.1
Cc1ccc(C)c(N2CCN(C(=O)c3ccc(CSc4nc5ccncc5[nH]4)cc3)CC2)c1	0.87	-5.2
COc1ccc2oc(=O)c(-c3csc(C)n3)cc2c1	1.3	4.9
O=S(=O)(Nc1ccc2oc3c(c2c1)CCCC3)c1cccs1	0.68	-0.91
O=C(O)CCC(=O)N1CCc2cc(S(=O)(=O)NCc3ccc(F)cc3)ccc21	1.1	1.6
COc1ccc(CNC(=O)c2cc3c(-c4ccccc4F)nn(C)c3s2)cc1	0.87	-2.2
CCCCN1C(=O)C(O)(c2c(C)[nH]c3ccccc23)c2ccccc21 (configuration not stated)	1.1	1.1
Cc1ccc(S(=O)(=O)c2cn(CC(=O)Nc3ccc(F)c(Cl)c3)c3ccccc3c2=O)cc1C	1	0.37
NC(=O)c1nnn(-c2nonc2N)c1CSc1nc2ccccc2s1	0.84	-0.65
CCN1CCN(c2ncc(C(=O)Nc3cc(C)on3)c3ccccc23)CC1	1.5	1.1
CCCNC(=O)c1cc2c(s1)CS(=O)(=O)C2	0.97	-0.48
O=C(NC1CCCCCCC1)c1cc(=O)[nH]c2ccc(S(=O)(=O)N3CCCCC3)cc12	1	0.22
O=C(COc1ccc(Cl)cc1Cl)Nc1ccc2oc(-c3cccnc3)nc2c1	1.1	0.92
Cc1c(Cl)cccc1NC(=O)c1csc2c1CCCC2	1.1	3.6
CC(C)(C)c1ccc2c(c1)N(CC(=O)NCCN1CCc3ccccc3C1)C(=O)CO2	0.9	-1.7
CC(C)c1ccc(NS(=O)(=O)c2ccc3[nH]cc(C(=O)NC4CCCCC4)c(=O)c3c2)cc1	0.91	-1.7

As a short view, part of the list above:
SMILES	CBX7 inh	CBX7 inh z-score
O=C1c2ccccc2C(=O)N1c1cccc(-c2csc(Nc3cccc4ccccc34)n2)c1	0.94	-0.46
Cc1cccc(CN2C(=O)c3ccccc3Sc3ccc(C(=O)NCCN4CCOCC4)cc32)c1	0.93	-2
COC(=O)CC1C(=O)NCCN1C(=O)NC1CCCCC1 (configuration not stated)	0.93	-0.92

(next part)
SMILES	CBX7 inh	CBX7 inh z-score
CC(C)c1ccc(NC(=O)C2CCCN(S(=O)(=O)c3cccnc3)C2)cc1 (configuration not stated)	1	0.017
COc1ccccc1OCCSc1nc2ccccc2n1CC(N)=O	1	0.22
CCC(=O)N1CCc2cc(Br)cc(S(=O)(=O)NCCc3cccc(C)c3)c21	0.98	-0.6
O=C(NCCCN1CCOCC1)c1ccc2c(c1)N(Cc1ccc(Cl)cc1)C(=O)CS2	1	1.8
O=C(CCNS(=O)(=O)c1ccc2c(c1)CCC(=O)N2)NCCc1ccccc1	1.1	2.9
CCOC(=O)c1c(C)n(C)c2ccc(OCC(O)CNC3CCCCC3)cc12 (configuration not stated)	0.97	-1.5
Cc1ccc(C(=O)CSc2nc(-c3ccccc3)cn2-c2ccc(Br)cc2)cc1	0.83	-4.5
Cc1ccc(C)c(N2CCN(C(=O)Cc3c(C(=O)O)[nH]c4ccc(Cl)cc34)CC2)c1	1	1.4
CCN(Cc1ccccc1)C(=O)C1(S(=O)(=O)c2ccc(Cl)cc2)CC1	0.84	-2.7
CCCCn1c(C2CC(=O)N(c3ccc(C)c(C)c3)C2)nc2ccccc21 (configuration not stated)	0.92	-1.9
CCn1c(C2CC(=O)N(c3ccccc3F)C2)nc2ccccc21 (configuration not stated)	1.1	0.68
CC(C)CCNC(=O)CN1C(=O)COc2ccc(S(=O)(=O)N3CC(C)CC(C)C3)cc21 (configuration not stated)	1.1	2
Cc1ccccc1Nc1cc(C(=O)NCc2ccccn2)c2ccccc2n1	0.95	-0.82
COc1cc2c(cc1OC)C(C(=O)N1CCCCC1)C1c3ccccc3CCN1C2=O (configuration not stated)	1	0.0098
Cc1ccc(NC(=O)CSc2nnc(C)c3ccccc23)cc1	0.98&0.83	-0.82&-0.65
C=CCn1c(SCC(=O)Nc2ccc(Br)cc2)nnc1-c1cccnc1	1	0.74
Cc1ccc2cc(CCNC(=O)c3ccccc3C(F)(F)F)c(=O)[nH]c2c1	1	0.41
O=C(Nc1nccs1)c1cc(S(=O)(=O)N2CCOCC2)ccc1Cl	0.99	-0.22
Fc1cccc(CSc2nc3ccncc3n2Cc2ccccc2Cl)c1	0.99	-0.69
CCOc1ccc2c(c1)c(=O)c(S(=O)(=O)c1ccc(C)cc1)cn2Cc1ccc(Cl)cc1	0.99	-0.51

Additional entries.
SMILES	CBX7 inh	CBX7 inh z-score
Cc1onc(-c2ccccc2)c1C(=O)Nc1nnc(C(C)(C)C)s1	1	-0.028
Cc1cc(N2CCN(C)CC2)nc2ccc(NC(=O)CCC(=O)NCCC(C)C)cc12	1.2	3.8
CC(C)Cn1c(C2CC(=O)N(c3ccc(Br)cc3)C2)nc2ccccc21 (configuration not stated)	1.1	0.9
COc1ccc(Cc2nc3cc(C)c(C)cc3[nH]c2=O)cc1OC	1	0.63
CCOC(=O)N1CCC(N2Cc3cccc(C(=O)NCC(OC)OC)c3C2=O)CC1	1	1.2
O=C(NCCN1CCN(c2ccccc2F)CC1)C1CC(=O)N(C2CCCC2)C1 (configuration not stated)	0.98	-0.76
COc1ccc(Nc2nnc(Cc3ccncc3)c3ccccc23)cc1Cl	1	0.23
Cc1cc(F)ccc1NC(=O)CC1C(=O)N(Cc2ccccc2)C(C)c2nc3ccccc3n21 (configuration not stated)	1	0.27
Cc1ccc2oc(-c3cccc(NC(=O)c4cccc(F)c4)c3C)nc2c1	1	0.72
CN(C)CCNC(=O)Cn1nc(Cc2ccncc2)c2ccccc2c1=O	0.92	-0.97
O=C(Nc1ccc(-c2noc(-c3cccc(Cl)c3)n2)cc1)c1cccc(Cl)c1	1.1	1.7
O=C(CN1C(=O)CSc2ncccc21)NCCCN1CCN(C2CCCCC2)CC1	1	0.057
Cc1c(CNC(=O)c2cc(-c3ccccc3)nc3ccc(Br)cc23)cnn1C	0.98	-0.46
COc1ccc(-c2cc(C(=O)Nc3cccnc3Cl)no2)cc1OC	0.95	-1
O=C(CC1(O)C(=O)Nc2ccc(Cl)cc21)c1ccccc1O (configuration not stated)	1	1.1
CCCOc1ccc(C(=O)Nc2ccc(S(=O)(=O)Nc3ncccn3)cc2)cc1	1	0.1
O=C(CSc1nccn1-c1cccc(Cl)c1)Nc1ccccc1	0.85	-2.7
CCCN(C(=O)Cc1nc(N)n[nH]1)C1(C(=O)Nc2c(C)cccc2C)CCCCC1	0.73	-3.9
Cc1nnc(NC(=O)CSc2n[nH]c(-c3ccccc3)n2)s1	1	0.23
COc1ccccc1Nc1nc(Cc2ccccc2)nc2sc(C)c(C)c12	1.1	1.6

The results go on:
SMILES	CBX7 inh	CBX7 inh z-score
Clc1ccc2nc(N3CCOCC3)nc(-c3ccccc3)c2c1	1.3&1.2	7.8&4.9
Cc1ccc(-n2c3c(cc(C(=O)NCc4ccccc4)c2=O)C(=O)CCC3)cc1	1.3	3.6
COc1ccccc1N1C(=O)CC(N2CCN(c3ccccn3)CC2)C1=O (configuration not stated)	0.94	-0.49
CCCC1=Nc2cc(C(=O)NCc3ccc(Cl)cc3)ccc2Sc2ccc(C)cc21	0.76	-3.4
CCc1ccccc1NC(=O)Cc1c(C(=O)O)[nH]c2ccc(Cl)cc12	1.1	1.1
CC(C)Cc1ccc(-c2csc(Nc3cccc4ccccc34)n2)cc1	0.59	-5.6
CCCOc1ccc(N2C(=O)CC(Nc3ccc(Cl)cc3)C2=O)cc1 (configuration not stated)	1	0.057
O=C(CSc1nc(Nc2ccc3c(c2)OCO3)c2ccccc2n1)NC1CCCCC1	0.66	-0.96
Clc1ccc(-c2nc(-c3cccnc3)no2)cc1Cl	1.1	0.15
COc1ccc(NC(=O)Cn2cnc3sc4c(c3c2=O)CCCC4)cc1Cl	0.95	-1.5

Screening results as filed in PubChem.

The list is partial, so the mix of outcomes need not match the whole.
